Bioassay records as filed in PubChem.
DUX4 inh: blocks DUX4-driven transcriptional activation; 293T-iDUX4 ZSCAN4-Gaussia luciferase reporter, 24 h; hits give low values; activity change, negative = inhibition, % (test concentration not listed); 37,000 tested, 0.8% active; AID 1224904;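 active = -10% or lower and over 25 points stronger than a control reporter; inconclusive = -10% or lower with a smaller gap; inactive = above -10%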;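 also: 0% = median of neutral control wells and -100% = median of positive control wells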
DUX4 inh difference: also measured in DUX4 inh; calls as there; Gaussia minus Italica difference, %; measured here: selective DUX4 reporter inhibition;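 worked out from the two reporters; negative = selective loss of the DUX4 reporter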
DUX4 inh control: further read-out of DUX4 inh, marked with its call; activity change, negative = inhibition, %; measured here: Italica tet-on control reporter;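 0 = neutral control and -100 = positive control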
* hit, by the source's call; ? = inconclusive; . = not tested or not shown.

SMILES	DUX4 inh	DUX4 inh difference	DUX4 inh control
Cc1ccc(S(=O)(=O)N2CC[C@@H]3[C@@H](CO)Nc4ccc(-c5ccc(C#N)cc5)cc4[C@@H]32)cc1	?	.	.
COc1ccccc1C#Cc1ccc([C@@H]2[C@H]3CN(C(=O)C4CCC4)CCCCN3[C@H]2CO)cc1	?	.	.
O=C(Nc1ccc(F)cc1)N1CC(=O)N2[C@H](CO)[C@@H](c3ccc(C4=CCCC4)cc3)[C@H]2C1	0.5	3.5	-3.1
Cc1ccccc1-c1ccc([C@H]2[C@H](CO)N3CCCCN(S(=O)(=O)c4ccc(F)cc4)C[C@@H]23)cc1	-56.1*	-28.8*	-27.3*
CN1c2ccc(-c3ccccc3F)cc2[C@@H]2[C@@H](CCN2C(=O)CN2CCOCC2)[C@@H]1CO	16.6	13.1	3.5
COc1ccccc1NC(=O)N1CC(=O)N2[C@H](C1)[C@@H](c1ccc(-c3ccc(F)cc3)cc1)[C@@H]2CO	0.3	8.3	-8.0
COc1ccc(NC(=O)Nc2ccc3c(c2)C(=O)N([C@H](C)CO)C[C@@H](C)[C@H](CN(C)Cc2ccncc2)OCCCC[C@H](C)O3)cc1	-1.5	1.9	-3.3
COc1ccc(NC(=O)N2C[C@@H](O)COC[C@H]3O[C@@H](CC(=O)N4CCOCC4)CC[C@@H]32)cc1	8.2	1.9	6.3
CCCC(=O)Nc1ccc2c(c1)C(=O)N(C)[C@H]1CC[C@H](CC(=O)NCCOC)O[C@H]1CO2	-1.7	-3.0	1.3
CCCC(=O)Nc1ccc2c(c1)C(=O)N(C)C[C@@H](OC)[C@H](C)CN(CCC(F)(F)F)[C@@H](C)CO2	-2.2	-2.7	0.6
COc1ccc(-c2cnc3c(c2)C(=O)N([C@@H](C)CO)C[C@@H](C)[C@H](CN(C)Cc2ccc(C(=O)O)cc2)O3)cc1	2.3	5.0	-2.6
COc1ccc(NC(=O)N2CCC3(CC2)CN(C(=O)c2cccnc2)[C@@H](CO)c2[nH]c4cc(OC)ccc4c23)cc1	9.4	1.8	7.6
O=C(C[C@@H]1C[C@@H]2c3cc(NC(=O)C4CCOCC4)ccc3O[C@@H]2[C@@H](CO)O1)NCCN1CCCCC1	3.8	-3.2	7.0
C/C=C/c1ccccc1[C@@H]1[C@@H](C#N)N(S(=O)(=O)c2cccc(F)c2)[C@H]1CO	?	.	.
COCC(=O)N1CC[C@@H]2[C@H]1c1cc(C#Cc3cccc(F)c3)ccc1N[C@@H]2CO	5.4	-9.8	15.2
O=C(C[C@H]1C=C[C@H](NC(=O)c2ccncc2)[C@H](CO)O1)NCC1CC1	-0.5	-4.8	4.3
Cc1ccc(S(=O)(=O)N(C)C[C@@H]2Oc3c(NC(=O)Nc4cccc5ccccc45)cccc3C(=O)N([C@@H](C)CO)C[C@H]2C)cc1	5.3	1.4	3.9
COc1ccc([C@H]2C/C=C\C[C@@H](c3ccc4c(c3)OCO4)NC(=O)CCC(=O)N2)c(OC)c1	6.3	3.4	2.9
COc1ccc(C#Cc2ccc([C@H]3[C@@H](CO)N4C(=O)CN(C(C)=O)C[C@H]34)cc2)cc1	?	.	.
C/C=C/c1cnc2c(c1)C(=O)N([C@H](C)CO)C[C@H](C)[C@@H](CN(C)S(=O)(=O)c1cn(C)cn1)O2	-2.1	-3.3	1.2

Rewritten with two lines to a compound: entries from further up
The line under a structure holds: DUX4 inh	DUX4 inh difference	DUX4 inh control
COc1ccc(NC(=O)N2CCC3(CC2)CN(C(=O)c2cccnc2)[C@@H](CO)c2[nH]c4cc(OC)ccc4c23)cc1
  9.4	1.8	7.6
CCCC(=O)Nc1ccc2c(c1)C(=O)N(C)C[C@@H](OC)[C@H](C)CN(CCC(F)(F)F)[C@@H](C)CO2
  -2.2	-2.7	0.6
Cc1ccc(S(=O)(=O)N2CC[C@@H]3[C@@H](CO)Nc4ccc(-c5ccc(C#N)cc5)cc4[C@@H]32)cc1
  ?	.	.
COCC(=O)N1CC[C@@H]2[C@H]1c1cc(C#Cc3cccc(F)c3)ccc1N[C@@H]2CO
  5.4	-9.8	15.2

Additional compounds.
SMILES	DUX4 inh	DUX4 inh difference	DUX4 inh control
COc1cccc(S(=O)(=O)Nc2ccc3c(c2)[C@H]2C[C@@H](CC(=O)NCc4ccc(Cl)cc4)O[C@@H](CO)[C@H]2O3)c1	?	.	.
OC[C@H]1[C@H](c2ccc(C#CC3(O)CCCC3)cc2)[C@@H]2CN(Cc3cncnc3)CCCCN12	16.8	13.3	3.5
CO[C@H]1CN(C)C(=O)c2ccc(NC(=O)C3CC3)cc2OC[C@H](C)N(Cc2cncnc2)C[C@@H]1C	5.3	1.3	4.0
CCCN1[C@@H]2c3ccc(-c4ccc(C(=O)N(C)C)cc4)c(=O)n3C[C@@H]2[C@@H](CO)[C@@H]1C(=O)NCC	2.2	6.1	-3.9
O=C(c1ccccc1F)N1CC(=O)N2[C@H](CO)[C@@H](c3ccc(-c4ccc(F)cc4)cc3)[C@@H]2C1	-8.7	-5.3	-3.4
CO[C@@H]1CC[C@@H]2CCN(C)C(=O)[C@@H](C)N(C)C(=O)c3cc(C#N)ccc3OC[C@H]1O2	-0.6	0.6	-1.2
COCC(=O)NC[C@@H]1[C@H](c2ccc(C3=CCCC3)cc2)[C@H](CO)N1C(C)=O	2.9	1.7	1.2
COc1ccc2c3c(n(C)c2c1)[C@H](CO)N(C(=O)Nc1ccc(F)cc1)CC31CN(C(=O)c2cccnc2)C1	?	.	.
CCC(=O)N1CCC2(CC1)CN(Cc1cccc(F)c1)[C@@H](CO)c1c2c2ccc(OC)cc2n1C	?	.	.
C[C@H]1CN([C@@H](C)CO)C(=O)c2cc(NC(=O)C3CCCCC3)ccc2O[C@H]1CN(C)C(=O)Nc1ccc(C(F)(F)F)cc1	-1.5	-5.0	3.5
CNC[C@@H]1Oc2ccc(NS(=O)(=O)c3cccs3)cc2C(=O)N([C@H](C)CO)C[C@@H]1C	0.6	1.1	-0.5
CC(C)NC(=O)N1CC(=O)N2[C@H](C1)[C@@H](c1ccc(/C=C/c3ccccc3)cc1)[C@@H]2CO	-4.2	4.4	-8.7
Cc1ccc(S(=O)(=O)N2CC[C@H]3[C@H](CO)Nc4ccc(-c5ccccc5F)cc4[C@H]32)cc1	?	.	.
C[C@@H]1CN([C@@H](C)CO)C(=O)CCCn2nncc2CO[C@@H]1CN(C)S(C)(=O)=O	-5.3	-0.3	-5.0
O=C(C[C@H]1C[C@@H]2c3cc(NC(=O)c4ccc5c(c4)OCO5)ccc3O[C@@H]2[C@@H](CO)O1)NCc1cccnc1	4.0	2.0	2.1
O=C(O)C[C@@H]1CC[C@@H](NC(=O)c2ccncc2)[C@H](CO)O1	2.8	0.7	2.1
NCC[C@H]1CC[C@H](NC(=O)Cc2ccncc2)[C@@H](CO)O1	-0.4	-2.7	2.3
Cc1noc(C)c1NC(=O)Nc1ccc2c(c1)C(=O)N(C)[C@H]1CC[C@H](CC(=O)N[C@H]3CCN(Cc4ccccc4)C3)O[C@H]1CO2	-4.1	-2.8	-1.3
CCC(=O)N1C[C@@H](O)COC[C@H]2O[C@H](CC(=O)NCc3ccccc3Cl)CC[C@@H]21	4.8	8.8	-4.0
C[C@H](O)C#Cc1ccc([C@H]2[C@H]3CN(C(=O)c4ccc5c(c4)OCO5)CCCCN3[C@H]2CO)cc1	7.0	10.1	-3.1

3 compounds from above, sorted by molecular weight, falling:
SMILES	DUX4 inh	DUX4 inh difference	DUX4 inh control
CCCN1[C@@H]2c3ccc(-c4ccc(C(=O)N(C)C)cc4)c(=O)n3C[C@@H]2[C@@H](CO)[C@@H]1C(=O)NCC	2.2	6.1	-3.9
O=C(O)C[C@@H]1CC[C@@H](NC(=O)c2ccncc2)[C@H](CO)O1	2.8	0.7	2.1
NCC[C@H]1CC[C@H](NC(=O)Cc2ccncc2)[C@@H](CO)O1	-0.4	-2.7	2.3

Other results follow.
SMILES	DUX4 inh	DUX4 inh difference	DUX4 inh control
CC=Cc1ccc2n(c1=O)C[C@H]1[C@H](CO)[C@@H](C(=O)NCc3ccc(F)cc3)[C@@H]2N1CC (mixture of isomers)	-4.1	-7.1	3.0
C[C@@H]1CN([C@H](C)CO)C(=O)c2cc(NS(=O)(=O)c3cccs3)ccc2O[C@H]1CN(C)S(=O)(=O)c1ccc(Cl)cc1	1.7	-0.6	2.2
CO[C@@H]1CC[C@@H]2CCOc3ccc(C#N)cc3C(=O)N(C)[C@H](C)C(=O)N(C)C[C@H]1O2	-1.2	-2.2	1.0
COc1ccc(NC(=O)N2C[C@H](O)COC[C@H]3O[C@@H](CC(=O)N4CCCCC4)CC[C@@H]32)cc1	0.3	-4.6	4.9
COc1cccc(S(=O)(=O)N2C[C@@H](O)COC[C@H]3O[C@@H](CC(=O)N4CCOCC4)CC[C@@H]32)c1	6.5	2.7	3.9
O=C(C1CCCCC1)N1CC2(C1)[C@H](c1ccccc1)[C@H](CO)N2Cc1ccccc1F	?	.	.
CO[C@@H](CN(C)C(=O)c1ccccc1F)[C@H](C)CN([C@H](C)CO)S(=O)(=O)c1ccc(C)cc1	0.3	-1.8	2.1
O=C(c1ccccc1)N1CC(=O)N2[C@H](CO)[C@H](c3ccc(-c4ccccc4)cc3)[C@@H]2C1	13.7	0.9	12.8
C[C@H](NC(=O)C[C@H]1C[C@H]2c3cc(NC(=O)c4cccnc4)ccc3O[C@H]2[C@H](CO)O1)c1ccccc1	2.6	-3.4	6.0
COc1cccc(NC(=O)N[C@@H]2C=C[C@@H](CC(=O)Nc3ccc(-c4ccccc4)cc3)O[C@@H]2CO)c1	2.3	5.2	-2.9
C[C@H]1CCCCO[C@@H](CN(C)C(=O)Cc2ccccc2)[C@@H](C)CN([C@@H](C)CO)C(=O)c2cc(NC(=O)c3ccncc3)ccc2O1	-0.1	-1.7	1.5
O=C(C[C@H]1CC[C@H]2[C@@H](COC[C@H](O)CN2C(=O)c2ccccc2F)O1)N1CCOCC1	0.4	0.4	0.0
C[C@@H]1CN([C@H](C)CO)C(=O)c2cc(NC(=O)CCC(F)(F)F)ccc2O[C@@H](C)CCCCO[C@H]1CN(C)C(=O)c1ccncc1	-1.7	2.9	-4.6
COc1ccc(NC(=O)Nc2ccc3c(c2)C(=O)N([C@@H](C)CO)C[C@H](C)[C@@H](CN(C)S(=O)(=O)c2cccs2)OCCCC[C@@H](C)O3)cc1	2.2	-0.8	3.0
COc1ccccc1CNC(=O)C[C@H]1CC[C@H]2[C@@H](COc3ccc(NC(=O)Nc4ccc(F)c(F)c4)cc3C(=O)N2C)O1	-3.3	-4.3	1.0
O=C(CN1CCOCC1)NC[C@@H]1N[C@@H](CO)[C@@H]1c1ccc(-c2ccccc2)cc1	-3.8	-2.3	-1.5
CCS(=O)(=O)N1CCC2(CC1)CN(Cc1ccccc1F)[C@H](CO)c1c2c2ccc(OC)cc2n1C	?	.	.
CCCNC(=O)N1C[C@H](O)COC[C@H]2O[C@@H](CC(=O)N3CCCCC3)CC[C@@H]21	0.8	-6.6	7.4
O=C(c1cnccn1)N1CC(=O)N2[C@H](CO)[C@H](c3ccc(C#CCc4ccccc4)cc3)[C@H]2C1	-1.1	-9.3	8.2
CCCC#Cc1ccc([C@@H]2[C@@H](CO)N3C(=O)CN(C(=O)Nc4ccccc4)C[C@@H]23)cc1	-0.9	-14.3	13.4
CN(C)CC(=O)N1CC[C@@H]2[C@H]1c1cc(-c3ccccc3)ccc1N(C)[C@H]2CO	5.3	-1.4	6.7
O=C(Cc1cccnc1)N1CC(=O)N2[C@@H](CO)[C@H](c3ccc(/C=C/c4ccccc4)cc3)[C@@H]2C1	3.1	1.2	1.9
CC[C@@H]1CC=CC[C@H](C)Oc2ccccc2C(=O)N(C)[C@@H](Cc2ccccc2)C(=O)N1 (mixture of isomers)	-1.5	1.1	-2.6
O=C(Cc1ccccn1)N1CC(=O)N2[C@H](CO)[C@H](c3ccc(-c4ccc(F)cc4)cc3)[C@H]2C1	5.4	6.4	-1.1
O=C(C[C@H]1CC[C@@H]2[C@H](COC[C@@H](O)CN2S(=O)(=O)c2ccc(F)cc2)O1)NCC1CC1	0.9	0.1	0.7
Cc1ccccc1NC(=O)C[C@H]1CC[C@H]2[C@@H](COc3ccc(NC(=O)C4CCC4)cc3C(=O)N2C)O1	-2.7	5.8	-8.5
C/C=C/c1ccc([C@H]2[C@@H](CO)N(S(C)(=O)=O)[C@H]2CNC(C)C)cc1	-3.8	-0.8	-3.0
COc1ccc(S(=O)(=O)N[C@H]2C=C[C@H](CC(=O)N3CCC(Cc4ccccc4)CC3)O[C@@H]2CO)cc1	?	.	.
C[C@@H]1CN([C@@H](C)CO)C(=O)CCCn2nncc2CO[C@H]1CN(C)S(=O)(=O)c1ccc(-n2cccn2)cc1	2.8	-1.7	4.4
CCC(=O)N1CCC2(CC1)CN(Cc1ccccc1Cl)[C@@H](CO)c1c2c2ccc(OC)cc2n1C	?	.	.
N#C[C@H]1[C@@H](c2ccc(C#CC3CC3)cc2)[C@@H](CO)N1C(=O)Nc1ccc(F)cc1	-1.0	-0.2	-0.8
C[C@@H]1CN([C@H](C)CO)C(=O)c2cc(NS(=O)(=O)c3cn(C)cn3)ccc2O[C@@H]1CN(C)Cc1ccc(-c2ccccc2)cc1	-5.3	-4.0	-1.3
CO[C@H]1CN(C)C(=O)c2cc(NS(C)(=O)=O)ccc2OC[C@H](C)N(Cc2cncnc2)C[C@@H]1C	-6.6	-3.4	-3.2
C[C@@H]1CCCCO[C@H](CN(C)C(=O)Cc2ccccc2)[C@H](C)CN([C@H](C)CO)C(=O)c2cc(N(C)C)ccc2O1	-1.9	-0.2	-1.7
N#C[C@H]1[C@@H](c2ccc(C#CC3(O)CCCC3)cc2)[C@@H](CO)N1C(=O)C1CCC1	2.7	3.5	-0.7
C[C@@H]1CN([C@@H](C)CO)C(=O)c2cc(-c3cccnc3)cnc2O[C@@H]1CN(C)C(=O)C1CCCCC1	-1.3	-2.9	1.6
O=C([C@@H]1[C@@H](CO)[C@@H]2Cn3c(ccc(C4=CCCCC4)c3=O)[C@@H]2N1Cc1nccs1)N1CCOCC1	-2.1	7.2	-9.3
CC(=O)N1CC[C@@H]2[C@H]1c1cc(-c3ccc(F)cc3)ccc1N[C@@H]2CO	4.2	5.0	-0.8

Not all compounds are listed; rates above refer to the full screens.
